Screening data from PubChem BioAssay.
miR-21 FLuc: miR-21 reporter, rising signal; AID 2288; Potency, µM (top dose mostly 38.3 µM), for inactives: at the top dose reporter change, positive = more light; HeLa miR-21 FLuc reporter, luciferase, 48 h; 340,000 tested, under 10 active; active = well fitted rising curve with a large enough effect; inconclusive = small, poorly fitted or top-dose-only effect; inactive = no such curve, though single readings can be large or run the other way;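 further: % of control where 0% means no effect; miR-21 action dims this reporter so a rising signal means less miR-21 action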
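Compounds were titrated across several concentrations (up to approximately 40 uM) and incubated 48 hours with HeLa miR-21-FLuc reporter cells (miR-21 target sequence downstream of FLuc, endogenous miR-21). Readout was firefly luciferase luminescence after lytic detection reagent.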
* marks the source's active call; other numbers are inactive results; ? = inconclusive. These rows are one share of the data; count on the stated rates, not on these rows.

SMILES	miR-21 FLuc
Cc1c(NC(=O)c2cc(=O)c3cc(Cl)ccc3o2)c(=O)n(-c2ccccc2)n1C	1.3%
O=C1CC(c2ccccc2)c2c(n3ncnc3[nH]c2=O)N1 (stereo not given)	0.6%
Cc1cc(C)cc(NC(=O)NCCc2c(C)nn(C)c2C)c1	-13.7%
COc1ccc(-c2nc3nc(C)cc(Nc4cccc(C(F)(F)F)c4)n3n2)cc1	-1.1%
COc1cccc(N2CCN(c3ncnc4c3c(-c3ccccc3)cn4-c3ccc(F)cc3)CC2)c1	-2.7%
COc1ccc(NC(=O)C(=O)NCCc2ccc(OC)c(OC)c2)c(OC)c1	-0.1%
Cc1ccc(CNC(=O)C2CCN(c3nc4ccccc4n(C)c3=O)CC2)cc1	-1.1%
Cc1ccccc1CNCCCSc1nnnn1C	-6.8%
CC(=O)Nc1ccc(S(=O)(=O)NC2(C(F)(F)F)C(=O)Nc3c2c(=O)[nH]c(=O)n3-c2ccc(C)cc2)cc1 (stereo not given)	-0.6%
CCc1ccc(NC(=O)C2(c3cccs3)CCOCC2)cc1	4.3%
O=C(Nc1ccc2c(c1)OCO2)c1cc(-c2ccc(Br)cc2)on1	-11.1%
COc1ccc(-c2nc(CS(=O)CC(=O)NCCc3ccccc3)c(C)o2)cc1OC (stereo not given)	-20.3%
COc1cc(NC(=O)c2cc3ccccn3n2)cc(OC)c1OC	-14.3%
O=C(NCc1ccccc1Cl)C1CCCN(C(=O)c2cnn(-c3ccc(F)cc3)c2-n2cccc2)C1 (stereo not given)	22.2%
CCOc1ccc(C2C(C(=O)Nc3ccccc3C)=C(C)Nc3nnnn32)cc1 (stereo not given)	6.9%
CC(C(=O)Nc1cc(C(F)(F)F)ccc1Cl)n1nnc2sc3c(c2c1=O)CCCC3 (stereo not given)	12.7%
COc1ccc(-c2noc(COc3cc(C)c(Br)c(C)c3)n2)cc1OC	-3.4%
CCCCn1cc(S(=O)(=O)c2ccc(OC)cc2)c(=O)c2cc(F)c(N3CCCC3)cc21	-0.5%
COc1ccc(CCNC(=O)C(C)n2nc(C)c3sc4ccccc4c3c2=O)c(OC)c1 (stereo not given)	-31.9%
CCOC(=O)c1sc(N2C(=O)c3oc4ccc(F)cc4c(=O)c3C2c2ccc(O)cc2)nc1C (stereo not given)	-14.2%
CCCCc1nn2c(=O)cc(COC(=O)c3cccc(OC)c3)nc2s1	-0.2%
CCCc1cc(=O)oc2cc(C)c3c(-c4ccccc4)c(C)oc3c12	-9.8%
COc1ccc(OC)c(CCNC(=O)c2c(C)nn(-c3ccc(F)cc3)c2-n2cccc2)c1	15.5%
COc1ccc(CNC(=O)c2cnn3c(C)c(Cc4c(F)cccc4Cl)c(C)nc23)cc1	-4.3%
CCOc1ccc(CNC(=O)C2CCN(C(=O)N3CC(CC)Oc4ccc(C)cc43)CC2)cc1OC (stereo not given)	20.5%
CCOC(=O)c1ccc(NC(=O)CC2Sc3ccc(C(F)(F)F)cc3NC2=O)cc1 (stereo not given)	0.2%
CC(C)c1ccc(C2c3c(-c4ccccc4O)n[nH]c3C(=O)N2Cc2ccncc2)cc1 (stereo not given)	?
COC(=O)c1cc2occc2n1CC(=O)Nc1ccc(C)cc1Cl	-4.5%
Clc1cccc(-n2cc(-c3ccccc3)c3c(N4CCCCC4)ncnc32)c1	0.4%
CCOC(=O)C(CC)n1nc(C)c2c(C)n(-c3ccc(C)cc3)nc2c1=O (stereo not given)	19.0%
Cc1ccccc1CNC(=O)Cn1ccc2cc(S(=O)(=O)N3CCCCC3)ccc21	13.3%
CCOc1ccccc1CNC(=O)C1CCN(S(=O)(=O)c2ccc3[nH]c(=O)ccc3c2)CC1	-4.9%
CCOc1ccccc1NC(=O)C(C)Sc1nc(-c2ccccc2)c(C#N)c(=O)[nH]1 (stereo not given)	1.4%
Cc1ccc(S(=O)(=O)Nc2nc3n(n2)C(c2ccccc2Cl)C=C(c2ccccc2)N3)cc1 (stereo not given)	-11.6%
CCn1c(SCc2ccccc2)nnc1-c1nonc1NC(C)=O	7.0%
CCCCn1c(=N)c(C(=O)NC2CCCCC2)cc2c(=O)n3cccc(C)c3nc21	-2.6%
CCCCN(CC)CCCNC(=O)C1CCCN(c2ncnc3c2nc2n3CCCCC2)C1 (stereo not given)	1.2%
CCCS(=O)(=O)Nc1cc(-c2cn3cccc(C)c3n2)ccc1C	-29.5%
CCSc1nnc2c(n1)OC(c1ccc(OC)cc1OC)N(C(C)=O)c1ccccc1-2 (stereo not given)	-5.4%
CCn1c(C)c(C)c2cc(C(=O)NCc3cccc(C)c3)ccc21	-8.7%
CCc1ccccc1NC(=O)c1cc2c(Cl)nc3ccccc3c2s1	-4.3%
O=C(O)c1sc(Nc2ccccc2)nc1-c1ccccc1	-9.7%
CCOc1ccc(NC(=O)CCC(=O)N2CC(C)Oc3ccc(C)cc32)cc1 (stereo not given)	-22.1%
Cc1ccccc1Nc1nnc(-c2ccc(C)c(S(=O)(=O)NCC3CCCO3)c2)c2ccccc12 (stereo not given)	18.1%
CCOc1ccc(S(=O)(=O)N(CC(=O)NCCSCc2ccc(C)cc2)c2ccccc2)cc1	-0.1%
COc1ccc(/C=C/C(=O)Nc2cc(-c3nc4ccccc4o3)ccc2OC)cc1	2.4%
Cc1ccc(Cl)cc1NC(=O)c1oc2c(c1C)-c1[nH]ncc1CC2	?
CCn1c2ccccc2c2cc(NC(=O)COc3ccc(C)c(C)c3)ccc21	0.8%
O=C(Nc1cc(F)ccc1F)c1ccc(CN2CC(=O)N3CCCCC3C2=O)cc1 (stereo not given)	29.7%
O=C(NCc1ccc(Cl)cc1)C1CCN(c2ncnc3c2nc2n3CCCCC2)CC1	-2.1%
Cc1ccc(C)c(N2CCN(CCCNC(=O)Nc3ccc(Cl)cc3)CC2)c1	?
Cc1cccc(-n2c(=O)c3c(c4cc(C)ccc4n3C)n(C)c2=O)c1	0.1%
Cc1ccc(C)n1-c1nnc(N2CCCC(C(=O)NCc3cccc(Cl)c3)C2)s1 (stereo not given)	8.1%
O=C(c1ccc2c(c1)N(Cc1ccc(Cl)cc1)C(=O)c1ccccc1S2=O)N1CCOCC1 (stereo not given)	8.9%
COc1ccccc1NC(=O)c1ncoc1-c1ccco1	-14.7%
COc1ccccc1C(=O)Nc1ccc(C(=O)OCc2cc(=O)n3nc(C)sc3n2)cc1	-0.7%
CCN(CC)CCCNC(=O)c1nn(C)c2c1CSc1ccccc1-2	8.7%
COc1ccc2c(c1)CCc1c(C(=O)Nc3c(C)nn(Cc4ccccc4Cl)c3C)noc1-2	-6.1%
COC(=O)N1CCCc2cc(S(=O)(=O)N3CCN(c4ccccc4)CC3)ccc21	17.3%
Cc1ccc(N2CC(NC(=O)CCc3ccccc3)CC2=O)cc1C (stereo not given)	-7.7%

The list continues:
SMILES	miR-21 FLuc
COc1ccc(OC)c(CNC(=O)c2cc3c(=O)oc4ccc(C)cc4c3s2)c1	-1.1%
COc1ccccc1CCNC(=O)C(=O)NCC(c1ccc2c(c1)OCO2)N1CCOCC1 (stereo not given)	19.4%
COc1ccc(-c2[nH]c(-c3ccc(OC)c(OC)c3)nc2SCC(=O)Nc2ccccc2)cc1	22.9%
CCOCCCNc1nc2c(S(=O)(=O)c3ccc(CC)cc3)nnn2c2ccc(Cl)cc12	-0.6%
COc1ccc(C2=NN(CC(=O)NCCCN(C)c3ccccc3)C(=O)CC2)cc1	11.7%
COC(=O)c1cc(NC(=O)Nc2ccc3snnc3c2)cc(C(=O)OC)c1	8.7%
Cc1ccc(N2CCN(S(=O)(=O)c3cc(C(=O)Nc4cc(Cl)cc(Cl)c4)ccc3F)CC2C)cc1 (stereo not given)	28.6%
CCCCOc1ccccc1C1CC(=O)Nc2cc(C)c(C)cc21 (stereo not given)	28.0%
Cc1cccc(-c2nc(CCNC(=O)Cc3ccc(F)cc3)cs2)c1	0.7%
Cc1cc(NC(=O)COCc2cc(-c3ccc(F)cc3)on2)ccc1Br	-0.6%
CCN(CC)C(=O)c1sc2c(c1C)c(=O)n(-c1ccccc1)c(=O)n2CC(=O)N(CC)c1cccc(C)c1	0.1%
COCCCNC(=O)C1CCN(c2ncnc3c2nc2n3CCCCC2)CC1	-2.2%
COc1ccc(-c2noc(CNC(=O)c3ccccc3Br)n2)cc1	-4.9%
O=C1CC(c2ccccc2)Cc2[nH]c(=O)c(-c3nc(-c4ccc(Cl)c(Cl)c4)cs3)cc21 (stereo not given)	-0.5%
COc1cc(Cl)c(S(=O)(=O)N2CCN(c3c(C)cccc3C)CC2)cc1Cl	-0.1%
Cc1ccc(NC(=O)CSc2ncc3c(n2)-c2ccccc2N(C)S3(=O)=O)c(Cl)c1	23.1%
Cc1cccc(Cn2cc(/C=C(/C#N)C(=O)Nc3cccc(Cl)c3)c3ccccc32)c1	2.5%
CCOC(=O)c1ccc(NC(=O)CC2C(=O)N(c3ccc(C)cc3)C(=O)N2C2CCCC2)cc1 (stereo not given)	?
COc1ccc(CCNS(=O)(=O)c2ccc3c(c2)CC(C)N3C(=O)C2CCC2)cc1OC (stereo not given)	0.2%
CCc1ccc(CNC(=O)c2ccc(NC(=O)N3CCCCc4ccccc43)cc2)cc1	-3.6%
CCOc1ccccc1NC(=O)Cn1cnc2onc(-c3ccc(F)cc3)c2c1=O	1.8%
Cc1nn(C(C)C(=O)Nc2ccccc2C(F)(F)F)c(=O)c2c1sc1ccccc12 (stereo not given)	-20.6%
CCCNC(=O)Cn1c(=O)c2cccn2c2cccnc21	-2.3%
Cc1cc2nc(-c3ccc(Br)cc3)cc(C(F)(F)F)n2n1	-9.2%
CCOc1ccc(NC(=O)CSc2nccn2-c2cccc(C)c2C)cc1	?
Cc1nn2c(=O)cc(COc3ccc(/C=C(\C#N)C(=O)Nc4ccccc4)cc3Cl)nc2s1	1.1%
Cc1ccc(C)c(N2CCN(S(=O)(=O)c3cc(C(=O)Nc4ccc(Oc5ccccc5)cc4)ccc3F)CC2)c1	7.6%
COc1ccccc1CNS(=O)(=O)c1ccc2c(c1)NC(=O)CC(=O)N2	-0.9%
CCc1c(C)sc2c1CCN(C(=O)Nc1ccccc1C(F)(F)F)C2c1ccccc1 (stereo not given)	6.3%
COc1ccccc1CNC(=O)c1ccc(CN2CC(=O)N3CCCCC3C2=O)cc1 (stereo not given)	11.6%
Cc1cccc(Cn2c(=O)n(Cc3ccccc3)c(=O)c3sc4ccccc4c32)c1	4.7%
CCN(c1ccccc1)c1ncnc2c1cnn2-c1ccc(C)cc1C	-10.0%
O=C(Cn1cc(SCc2cccc(Cl)c2)c2ccccc21)N1CCCCC1	-22.7%
O=[N+]([O-])c1ccc(S(=O)(=O)N2CCn3cccc3C2c2ccc(Br)cc2)cc1 (stereo not given)	14.5%
Cc1cccc(NC(=O)CN2C(=O)C3(SCC(=O)N3c3ccccc3)c3ccccc32)c1 (stereo not given)	13.3%
COc1cc(NC(=O)c2cc3nc(-c4ccccc4)cc(-c4ccccc4)n3n2)c(OC)cc1Cl	-2.1%
Cc1cc(C)cc(NC(=O)Cn2c(-c3cncs3)nc3ccccc32)c1	6.2%
CNC(=O)C1CCC(Cn2c(=O)c3sccc3n(Cc3ccccc3)c2=O)CC1 (stereo not given)	-0.8%
CCOCCCn1c(=N)c(C(=O)NC2CCCC2)cc2c(=O)n3cccc(C)c3nc21	-0.5%
COc1ccc(CNC(=O)C(=O)NCC(c2cccs2)S(=O)(=O)c2ccc(F)cc2)cc1 (stereo not given)	13.9%
O=C(CCSCc1cnn(-c2ccccc2)c1-n1cccc1)NCc1ccccc1F	-1.6%
COc1cccc(-c2nc3c(c(SCc4ccccc4Cl)n2)Cc2c(CO)cnc(C)c2O3)c1	-0.8%
CCOC(=O)C1CCN(c2ncnc3c2nnn3C)CC1	-6.1%
CCc1cccc(C)c1NS(=O)(=O)c1ccc2c(c1)NC(=O)C(C)C(=O)N2 (stereo not given)	-2.2%
CC(=O)c1ccc(NS(=O)(=O)c2ccc(-n3cccn3)cc2)cc1	-6.6%

A second format for 16 compounds above.
compound | miR-21 FLuc
COc1ccccc1CNC(=O)c1ccc(CN2CC(=O)N3CCCCC3C2=O)cc1 (stereo not given) | 11.6%
Cc1cccc(Cn2c(=O)n(Cc3ccccc3)c(=O)c3sc4ccccc4c32)c1 | 4.7%
CCN(c1ccccc1)c1ncnc2c1cnn2-c1ccc(C)cc1C | -10.0%
O=C(Cn1cc(SCc2cccc(Cl)c2)c2ccccc21)N1CCCCC1 | -22.7%
O=[N+]([O-])c1ccc(S(=O)(=O)N2CCn3cccc3C2c2ccc(Br)cc2)cc1 (stereo not given) | 14.5%
Cc1cccc(NC(=O)CN2C(=O)C3(SCC(=O)N3c3ccccc3)c3ccccc32)c1 (stereo not given) | 13.3%
COc1cc(NC(=O)c2cc3nc(-c4ccccc4)cc(-c4ccccc4)n3n2)c(OC)cc1Cl | -2.1%
Cc1cc(C)cc(NC(=O)Cn2c(-c3cncs3)nc3ccccc32)c1 | 6.2%
CNC(=O)C1CCC(Cn2c(=O)c3sccc3n(Cc3ccccc3)c2=O)CC1 (stereo not given) | -0.8%
CCOCCCn1c(=N)c(C(=O)NC2CCCC2)cc2c(=O)n3cccc(C)c3nc21 | -0.5%
COc1ccc(CNC(=O)C(=O)NCC(c2cccs2)S(=O)(=O)c2ccc(F)cc2)cc1 (stereo not given) | 13.9%
O=C(CCSCc1cnn(-c2ccccc2)c1-n1cccc1)NCc1ccccc1F | -1.6%
COc1cccc(-c2nc3c(c(SCc4ccccc4Cl)n2)Cc2c(CO)cnc(C)c2O3)c1 | -0.8%
CCOC(=O)C1CCN(c2ncnc3c2nnn3C)CC1 | -6.1%
CCc1cccc(C)c1NS(=O)(=O)c1ccc2c(c1)NC(=O)C(C)C(=O)N2 (stereo not given) | -2.2%
CC(=O)c1ccc(NS(=O)(=O)c2ccc(-n3cccn3)cc2)cc1 | -6.6%
